# Source: PubChem (National Center for Advancing Translational Sciences (NCATS))
# TRPML1 inh: human mucolipin-1 channel inhibition; 390,000 tested, 0.02% active; AID 624415; TRPML1-inducible cells, Ca2+ dye fluorescence, FDSS; hits give low values; inhibition of EC80 agonist-evoked calcium signal; activity change, negative = inhibition, % (no concentration beside the values); in the data active means activity change below about -50%; inconclusive means about -30% to -50%; inactive means above about -30%;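 further: stimulus is agonist 54-4 at its EC80 concentration; on the % scale 0 is the no-effect control and ±100 the full control effect; compound concentration not given in the record; the text of the record puts the active cut at -80%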
# Target sequence (Q9GZU1 whole entry, looked up): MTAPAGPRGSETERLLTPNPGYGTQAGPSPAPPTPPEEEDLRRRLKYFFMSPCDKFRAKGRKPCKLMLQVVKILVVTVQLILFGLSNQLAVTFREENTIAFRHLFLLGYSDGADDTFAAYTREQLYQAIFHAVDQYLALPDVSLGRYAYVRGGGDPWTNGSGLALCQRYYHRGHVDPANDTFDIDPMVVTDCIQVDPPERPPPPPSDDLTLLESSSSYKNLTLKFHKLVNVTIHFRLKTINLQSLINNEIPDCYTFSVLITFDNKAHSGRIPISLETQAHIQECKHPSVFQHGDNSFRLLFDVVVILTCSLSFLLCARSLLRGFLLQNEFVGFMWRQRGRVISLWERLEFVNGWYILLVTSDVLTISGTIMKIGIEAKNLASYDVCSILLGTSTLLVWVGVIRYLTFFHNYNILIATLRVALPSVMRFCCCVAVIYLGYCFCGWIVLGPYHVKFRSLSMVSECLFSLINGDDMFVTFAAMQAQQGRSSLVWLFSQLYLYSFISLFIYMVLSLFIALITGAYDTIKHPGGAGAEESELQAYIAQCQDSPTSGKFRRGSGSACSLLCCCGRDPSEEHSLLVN
#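 Calcium fluorescence in TRPML1-DL cells induced overnight with Tet: a 110 s read after compound pin addition, then a 110 s antagonist read after challenge with 54-4 at 4 uM final (EC80).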
# ClpP mod: qHTS Assay for Activators of ClpP | ATP-dependent Clp protease proteolytic subunit (Bacillus subtilis (strain 168)), P80244 | purified B. subtilis ClpP, FRET peptide cleavage, 20 min | 340,000 tested, 1.9% active | AID 651965, 2013 | Potency, µM (highest dose often 57.5 µM), for inactives: top-dose activity change, negative = active; active = well fitted falling curve with a large enough effect; inconclusive = small, poorly fitted or top-dose-only effect; inactive = no such curve, though single readings can be large or run the other way; further: potency means the concentration at half of the fitted maximal effect; the source files actives as falling curves though it sought activators and does not explain the sign; nearly all actives have a fitted effect of over 65% in size; many hits overshoot -100%
# Target sequence (P80244 whole entry, looked up): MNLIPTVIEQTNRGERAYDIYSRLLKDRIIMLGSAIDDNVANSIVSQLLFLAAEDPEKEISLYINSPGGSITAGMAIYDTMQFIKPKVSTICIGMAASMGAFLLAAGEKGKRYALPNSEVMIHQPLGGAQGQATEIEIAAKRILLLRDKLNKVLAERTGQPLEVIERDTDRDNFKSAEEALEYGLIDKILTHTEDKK
#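 FRET quenching reversal measured ClpP activation: 10 microg/mL B. subtilis ClpP at pH 8 with the FRET-FV decapeptide, read at 430 nm after 320 nm excitation. The 20-min minus 0-min signal was scaled between DMSO/no-enzyme wells and ADEP (5.8 microM final).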
# Starred values were filed as active, the others as inactive; u = inconclusive. These rows are one share of the data; rates above refer to the full screens.
SMILES,TRPML1 inh,ClpP mod
Cc1cc(C)cc(-n2c(SCC(=O)Nc3ccc4c(c3)OCCO4)nc3c([nH]c4ccccc43)c2=O)c1,-4,3.5%
CCc1ccccc1NC(=O)CSc1ncc(S(=O)(=O)c2ccc(C(C)C)cc2)c(N)n1,6,-6.0%
CCc1ccc(NC(=O)c2ccc(F)c(S(=O)(=O)N3CCC(C)CC3)c2)cc1,39,-7.6%
CCCCC1CC2=C(C(=O)OC(C)(C)O2)C(c2ccc(F)cc2)O1 (stereo not drawn),-3,0.4%
CCOC(=O)c1ccccc1NC(=O)Cn1ccn2nc(-c3ccc(OCC)cc3)cc2c1=O,-1,-2.7%
CCOC(=O)C1CCN(C(c2cccc(F)c2)c2c(O)cc(C)n(Cc3ccco3)c2=O)CC1 (stereo not drawn),23,4.3%
COc1ccccc1NC(=O)Cn1c(=O)n(Cc2ccccc2)c(=O)c2c3c(sc21)CN(C(C)=O)CC3,29,-2.7%
O=C(NCc1ccccc1Cl)C(=O)NCC(c1cccs1)S(=O)(=O)c1cccs1 (stereo not drawn),16,-1.5%
CCOC(=O)C1=CCN(S(=O)(=O)c2ccccc2Br)C1c1ccc(C)cc1 (stereo not drawn),7,0.0%
CC(C)(C)C(=O)Nc1ccc2nc(SCC(=O)N3CCc4ccccc43)sc2c1,-28,-3.2%
COCCCn1c(SCC(=O)Nc2ccccc2OC)nc2c(sc3ccccc32)c1=O,2,0.4%
CC(C)CNC(=O)C(=O)Nc1c2c(nn1-c1ccccc1)CS(=O)(=O)C2,-2,-2.5%
CCOc1ccc(C(=O)NCC(c2ccc3c(c2)OCO3)N2CCN(c3ccccc3F)CC2)cc1 (stereo not drawn),7,1.0%
COc1cc(NC(=O)c2ccc3oc(=O)c(S(=O)(=O)c4ccccc4)cc3c2)cc(OC)c1,12,-1.4%
COc1ccc(NC(=O)c2c(NC(=O)c3cccc(C)c3)sc3c2CCC3)cc1,-17,u
CCOc1ccc(Oc2nc(NCC(C)C)nc(N3CCOCC3)n2)nn1,0,0.2%
CCC(Nc1ccc(-c2nc(-c3cccnc3)no2)cc1[N+](=O)[O-])c1ccccc1 (stereo not drawn),13,0.4%
COc1ccccc1-c1noc(CCCC(=O)Nc2cccc(C(F)(F)F)c2)n1,3,-0.1%
COc1ccc(N2C(=O)C(CC(=O)Nc3ccc(F)cc3)N(CCC3=CCCCC3)C2=O)cc1 (stereo not drawn),1,1.7%
Cc1ccc(C)c(N2CCN(c3c(CN4CCCC4)c(=O)oc4ccccc34)CC2)c1,1,0.7%

# Single values from the entries so far:
# Under TRPML1 inh, `CC(C)CNC(=O)C(=O)Nc1c2c(nn1-c1ccccc1)CS(=O)(=O)C2` has -2
# Under TRPML1 inh, `COc1ccc(NC(=O)c2c(NC(=O)c3cccc(C)c3)sc3c2CCC3)cc1` has -17
# Under ClpP mod, `Cc1cc(C)cc(-n2c(SCC(=O)Nc3ccc4c(c3)OCCO4)nc3c([nH]c4ccccc43)c2=O)c1` has 3.5%

# (list continues)
SMILES,TRPML1 inh,ClpP mod
CN1C(=O)c2ccccc2Sc2ccc(NC(=O)c3ccc(C(F)(F)F)cc3)cc21,6,6.4%
CCOC(=O)c1c(C)[nH]c(C)c1S(=O)(=O)N1CCC(C(=O)NCc2ccccc2Cl)CC1,19,-3.2%
CCc1nn(CCCC(=O)NCc2ccc(OC)c(OC)c2)c(=O)c2cc3occc3n12,-19,-1.3%
O=C(CCn1cnc2onc(-c3ccc(F)cc3)c2c1=O)N1CCN(c2cccc(Cl)c2)CC1,8,-1.5%
CC(=O)C1=CCC(c2ccccc2)N(S(=O)(=O)c2cccc(C)c2)C1 (stereo not drawn),-8,-1.0%
CC(=O)c1cc(-c2ccc(F)cc2)n(CC(=O)NCc2ccc(C)cc2)c1C,-26,-7.3%
CCOC(=O)c1ccc(NC(=O)CCn2c(=O)c3cccn3c3ccccc32)cc1,u,-3.1%
COc1ccc(NC(=O)Cn2c(=O)n(Cc3ccco3)c(=O)c3sc4ccccc4c32)c(OC)c1,-13,9.8%
CC[C@@H](C)[C@@H](C(=O)Nc1ccc(C)cc1)N1Cc2ccccc2C1=O,8,-1.8%
CCc1ccc(NC(=O)c2ccc3[nH]c(C)c(C)c3c2)cc1,-23,-3.3%
Cc1cccc(Cn2nnc3c(=O)[nH]c(C4CCN(C(=O)c5ccc(F)cc5)CC4)nc32)c1,0,0.6%
COc1ccc(CCNC(=O)c2cc3n(n2)CCCN(Cc2ccc(C)cc2)C3=O)cc1OC,-4,1.0%
CCCOc1ccc(-c2nn(-c3ccccc3)cc2C2NC(=O)NC(C)=C2C(=O)OC(C)C)cc1 (stereo not drawn),15,-18%
CC(C)CCNC(=O)c1cc(-c2ccc(Br)s2)nc2ccccc12,6,-8.5%
COc1ccc(CNC(=O)c2cc3cc4cc(OC)ccc4nc3o2)cc1,-6,-20%
c1csc(CNc2nc(NCC3CCCCC3)c3sccc3n2)c1,-5,-9.1%
COCCNc1ccc(-c2nc(-c3ccco3)no2)cc1[N+](=O)[O-],10,2.4%
CCOc1ccc(NC(=O)Cn2c(C)cc3ccccc3c2=O)cc1,9,-1.7%
Cc1oc(-c2ccc(C(=O)NCCC(C)C)cc2)nc1CS(=O)(=O)c1ccccc1,-15,4.1%
CCOc1ccc(N(CC)S(=O)(=O)N2CCCC(C(=O)Nc3ccc(C(C)=O)cc3)C2)cc1 (stereo not drawn),51,2.4%
COc1ccc(S(=O)(=O)N(Cc2nc(-c3ccc(C)cc3)no2)C2CCCCC2)cc1,29,-0.6%
Cn1c(=O)cc(SCC(=O)NCCc2ccc(Cl)cc2)c2cc(Cl)ccc21,-11,-5.4%
COc1c(Cl)cc(Cl)cc1CNCCSc1nnnn1C,-10,1.3%
CCN1CCN(Cc2c(O)ccc3c(C)c(-c4ccc(OC)cc4)c(=O)oc23)CC1,7,4.2%
Cc1ccc2nc(-c3cccc(NC(=O)c4ccc(Br)o4)c3)oc2c1,-13,u
Cc1ccc(CNC(=O)CCCn2nc(C)n3c(cc4sccc43)c2=O)cc1,14,1.2%
CCOC(=O)C1CCCN(C(=O)c2cc(C)n(C(C)(C)C)n2)CC1 (stereo not drawn),32,1.5%
CCN(CC)CCNC(=O)Nc1ccc2c(c1)N(Cc1ccccc1)C(=O)c1ccccc1S2,6,-3.1%
Cc1ccsc1CN(C(=O)COc1ccc(Br)cc1)C1CCS(=O)(=O)C1 (stereo not drawn),32,-1.3%
CCc1ccccc1N(CC)C(=O)c1c(C)oc2ncnc(N3CCOCC3)c12,-5,-2.8%
COc1ccccc1N1CCN(C(=O)Cn2ncc3c2-c2cc(C)ccc2OC3)CC1,10,0.4%
CCC(C)NC(=O)CN1C(=O)c2cccnc2Sc2ccccc21 (stereo not drawn),3,0.4%
Cc1ccc(OCCSc2nc3ccccc3n2CCC(=O)O)cc1C,-15,0.4%
COc1cccc(N2CCN(c3ncnc4onc(-c5ccc(Cl)cc5)c34)CC2)c1,13,-24%
COc1ccc(-n2c(=O)c3c(c4cc(OC)ccc4n3C)n(CC(=O)N3CCCC3)c2=O)cc1,6,4.3%
Cc1cc2c(n1-c1ccc(C(=O)NCCc3ccc(Cl)cc3)cc1)CCC(C)C2 (stereo not drawn),19,-1.7%
CC(Oc1ccccc1)C(=O)N1CCN(Cc2cc(=O)n3nc(-c4ccccc4Cl)sc3n2)CC1 (stereo not drawn),-4,-11%
Cc1ccc(-c2nc3c4ccccc4[nH]c(=O)n3n2)cc1,9,-14%
O=C(Nc1ccccc1OCc1cc(=O)n2ccccc2n1)c1cccc(Br)c1,27,5.3%
Cc1ccc(S(=O)(=O)N(CC(=O)Nc2ccc(C(C)C)cc2)Cc2ccccc2)cc1,45,-1.9%

# Three compounds from above, arranged by count of non-hydrogen atoms, smallest number first:
SMILES,TRPML1 inh,ClpP mod
CCOc1ccc(Oc2nc(NCC(C)C)nc(N3CCOCC3)n2)nn1,0,0.2%
CCc1ccc(NC(=O)c2ccc(F)c(S(=O)(=O)N3CCC(C)CC3)c2)cc1,39,-7.6%
O=C(NCc1ccccc1Cl)C(=O)NCC(c1cccs1)S(=O)(=O)c1cccs1 (stereo not drawn),16,-1.5%

# (listing goes on)
SMILES,TRPML1 inh,ClpP mod
COc1ccc(Cl)cc1NC(=O)CSc1nc2ccccc2nc1N1CCCCC1,18,-1.6%
CC(=O)N1CCCc2cc(S(=O)(=O)N(C)CC(=O)Nc3ccc(F)c(Cl)c3)ccc21,28,-0.2%
Cc1ccc(S(=O)(=O)N2CCCc3cc(NS(=O)(=O)c4cccc(Cl)c4)ccc32)cc1,82,-1.3%
O=C(Cn1ncc2c3ccccc3n(Cc3ccc(Cl)cc3)c2c1=O)NCc1ccccn1,0,-26%
Cc1cc(C)c(S(=O)(=O)NCCc2cc3c(C)ccc(C)c3[nH]c2=O)c(C)c1,3,-2.3%
COc1ccc(NC(=O)C2=C(C)C(=O)OC23CCN(C(C)C)CC3)cc1Cl,-7,-0.4%
O=C(NCC(c1ccc(Cl)cc1)N1CCOCC1)c1ccccc1F (stereo not drawn),-9,1.6%
COc1ccc(-c2nc3scc(CCNS(=O)(=O)c4ccc5c(c4)OCCO5)n3n2)cc1OC,-29,1.1%
COc1ccc(-c2nc3sc(CCNC(=O)C(=O)Nc4ccc(OC)c(OC)c4)c(C)n3n2)cc1,2,4.3%
CCS(=O)(=O)N1CCc2cc(C(=O)NC(C)c3ccccc3)ccc21 (stereo not drawn),-2,2.2%
O=C(NNC(=O)c1csc(-c2cccs2)n1)c1ccc(Cl)cc1,19,-14%
Cc1nnc(N2CCCC(C(=O)Nc3cccc(C(F)(F)F)c3)C2)c2nn(-c3ccccc3)c(C)c12 (stereo not drawn),26,4.4%
CCc1nn2c(-c3ccccc3OC)ccnc2c1-c1ccccc1,3,-0.7%
CN(C(=O)CSc1nc2ccc(NC(=O)COc3ccc(Cl)cc3)cc2s1)c1ccccc1,2,-6.5%
CCC(C)NC(=O)c1cnn(-c2cccc(F)c2)c1-n1cccc1 (stereo not drawn),28,-0.3%
Cc1cnc(=O)[nH]c1SCC(=O)Nc1cc(C(F)(F)F)ccc1Cl,-13,-2.3%
Cc1cccc(C(=O)Nc2sc3c(c2C(=O)NC(C)C)CCCC3)c1,13,-3.1%
CCOc1ccccc1NC(=O)C1CCN(S(=O)(=O)c2ccc3[nH]c(=O)oc3c2)CC1,13,-0.5%
CCc1c(C)c2cc3c(c(C)c2oc1=O)OCN(CCc1ccc(OC)c(OC)c1)C3,12,3.9%
COCCCNS(=O)(=O)c1cc(-c2onc(C)c2C)ccc1OC,u,-7.0%

# Given with two lines to a compound: 4 of the compounds above
# Second line of a record – TRPML1 inh | ClpP mod
Cc1cnc(=O)[nH]c1SCC(=O)Nc1cc(C(F)(F)F)ccc1Cl
 : -13 | -2.3%
COc1ccc(NC(=O)Cn2c(=O)n(Cc3ccco3)c(=O)c3sc4ccccc4c32)c(OC)c1
 : -13 | 9.8%
CCc1nn2c(-c3ccccc3OC)ccnc2c1-c1ccccc1
 : 3 | -0.7%
COCCCNS(=O)(=O)c1cc(-c2onc(C)c2C)ccc1OC
 : u | -7.0%

# New compounds follow.
SMILES,TRPML1 inh,ClpP mod
Cc1ccc(Nc2cc(C)nc(-n3nc(C)cc3C)n2)cc1,2,-4.5%
CCOC1=C2CN(S(=O)(=O)c3ccc(C)cc3)[C@@H](c3cccs3)C[C@H]2[C@H]2C(=O)N(c3ccccc3)C(=O)[C@H]2C1,-27,-3.4%
Cc1cc(NC(=O)c2ccc3c(c2)N(Cc2cccc(Cl)c2)C(=O)c2ccccc2S3=O)ccc1Br (stereo not drawn),1,-1.4%
CCCCSCCCNC(=O)c1cn(C)c2ccc(S(=O)(=O)N3CCCCCC3)cc2c1=O,-13,0.5%
COc1ccc(-c2nc(SCCOc3cc(C)ccc3C(C)C)n3[nH]c(=O)cc3n2)cc1,10,u
CCCCCCN1CCN(C2CN(Cc3ccc(F)cc3)S(=O)(=O)C2)CC1 (stereo not drawn),11,0.0%
CCc1ccc(S(=O)(=O)Nc2ccc3oc(C)c(C(=O)OCCOC)c3c2)cc1,-16,-0.2%
COc1ccc(Nc2nc3c(S(=O)(=O)c4ccc(Br)cc4)nnn3c3ccsc23)c(OC)c1,3,1.2%
CCOC(=O)c1ccc(CN(Cc2ccccc2C)S(=O)(=O)c2ccc(C(C)(C)C)cc2)cc1,u,0.3%
CCOC(=O)c1cccc(NC(=O)N2CC(CC)Oc3ccccc32)c1 (stereo not drawn),-24,-2.0%
Cc1ccccc1OCCn1cc(C(=O)c2ccco2)c2ccccc21,45,-21%
Cc1ccc(CNC(=O)CCCCCn2c(=O)[nH]c3ccccc3c2=O)cc1,-4,-9.9%
CCc1cccc(-n2nnc(-c3nc(-c4ccccc4Cl)no3)c2N)c1,12,-4.8%
CCCNC(=O)c1cnn2c(C(F)F)cc(-c3ccccc3)nc12,-9,4.1%
CCOc1ccc(CCNC(=O)c2nc(-c3cccc(F)c3)n3c2CCCCC3)cc1OCC,7,-0.5%
COc1ccc(N2CCN(C(=O)CCc3c(C)nc4cc(-c5ccc(OC)cc5OC)nn4c3C)CC2)cc1,1,u
COc1ccc(Br)cc1CNC(=O)c1ccc2c(c1)N(Cc1ccc(C)cc1)CCS2,-7,4.2%
CCOc1cc(C2CC(=O)Nc3c2c(=O)nc(SCc2cccc(Cl)c2)n3C)ccc1O (stereo not drawn),11,-2.3%
